Vaccinia Venus – inhibitors of vaccinia virus (Venus reporter); Vaccinia virus Venus reporter expression, fluorescence; Potency, µM (highest dose often 36.5 µM), for the others: top-dose activity change, negative = inhibition, actives largely listed as inhibitors; hit rate 0.46% among 330,000; active means well fitted inhibition curve with a large enough effect; inconclusive means small, poorly fitted or top-dose-only effect; inactive means no such curve, though single readings can be large or run the other way; tested in A549 cells; also: nearly all actives have a fitted effect of over 30% in size; inactives centre near -10
Vaccinia mCherry – vaccinia inhibition (mCherry reporter); Vaccinia virus mCherry reporter infection, fluorescence; about a quarter of the inactives have no number; Potency, µM (doses to about 36.5 µM), for the others: at the top dose activity change, negative = inhibition, actives largely listed as inhibitors; AID 720579; hit rate 0.63% among 310,000; active = well fitted inhibition curve with a large enough effect; inconclusive = small, poorly fitted or top-dose-only effect; inactive = no such curve, though single readings can be large or run the other way; tested in A549 cells; also: nearly all actives have a fitted effect of over 35% in size; inactives centre near -10
An asterisk follows results filed as active; i = inactive; u = inconclusive; x = not tested or not shown; & = joins results of further samples; [ ] = dose if it differs, or a comment. % is scaled to controls: 0 for no effect and ±100 for the full control effect; potency is read from the fitted curve at half-maximal effect.

SMILES | Vaccinia Venus | Vaccinia mCherry
COc1cc(C(=O)Nc2ccc(C)cn2)c([N+](=O)[O-])cc1OC | -17% | -3%
CCOC(=O)c1cn[nH]c1C(F)(F)F | -10% | -21%
C=CCn1c(O)c(C(C)=NCc2ccc3c(c2)OCO3)c(=O)[nH]c1=O | -27% | -3%
Clc1ccccc1CNc1nc2ccccc2c2nc(-c3cccnc3)nn12 | -5% | -14%
O=C(Nc1ccc(O)cc1)c1cccc(S(=O)(=O)N2CCOCC2)c1 | 11% | -1%
COc1ccc(NC(=S)NNc2ccc([N+](=O)[O-])cc2S(=O)(=O)Nc2ccc(C)cc2C)cc1 | -30% | -23%
O=C(N/N=C/c1cccc(O)c1)c1ccccc1O | 0% | -21%
Cc1nc2sccn2c(=O)c1S(=O)(=O)NCC1CCN(Cc2ccccc2Cl)CC1 | -22% | i
CCOC(=O)CNC(=O)Cn1cnc2ccc(S(=O)(=O)N3CCC(C)CC3)cc2c1=O | -11% | -24%
Cc1ccc(S(=O)(=O)NCCSc2nnc(N)s2)cc1 | -14% | -18%
COc1ccccc1CN1C[C@@H]2C[C@@H](c3ccc(C)cc3)N3CCC[C@@]23C1=O | -8% | u
COc1cccc(COC(=O)c2sc3nc4n(c(=O)c3c2C)CCC4)c1OC | -13% | -18%
Cc1ccc(N2C(=O)N3[C@@H]4c5ccccc5OC[C@@H]4[C@@H](c4ccccc4)[C@@]3(C)C2=O)cc1 | -20% | i
COc1ccc(CCN(Cc2cc3cc(C)ccc3[nH]c2=O)C(=O)N2CCCC2)cc1OC | -21% | -12%
COc1ccc(S(=O)(=O)N(C)C[C@H]2Oc3ccc(NC(=O)C4CC4)cc3C(=O)N([C@H](C)CO)C[C@@H]2C)cc1 | -18% | i
Cc1cccc(NC(=O)CCn2ccnc2C)c1 | -7% | x
CC1(OC(=O)C2CCCC2)C(=O)C=C2C=C(c3ccsc3)N(Cc3ccco3)C=C2C1=O (configuration not stated) | -12% | i
COC(CN(C(=O)CCl)C(C(=O)NC1CCCCC1)c1ccccc1C)OC (configuration not stated) | 11µM* | 13µM*
COC(=O)[C@H](CC(C)C)NC(=O)Nc1ccc(F)cc1 | -1% | i
CC1=NN(c2ccccc2)C(=O)/C1=C/c1cccc(C)c1 | -15% | -19%
Cc1ccc(S(=O)(=O)NCCC(=O)NCc2ccco2)cc1 | 8% | i
CC1(C(=O)NCc2ccc(Cl)cc2)CCN1C(=O)Cc1ccc(Cl)cc1Cl (configuration not stated) | -11% | i
CCc1nc2ccc(C(=O)NCc3ccc(OC)c(OC)c3)cc2nc1CC | -5% | -14%
O=c1oc2ccccc2cc1-c1nnc(Nc2ccc(Cl)cc2Cl)s1 | -2% | -12%
CCN1Cc2cc(OC)ccc2-c2ccccc2S1(=O)=O | -10% | i
CSc1ccccc1NC(=O)COC(=O)Cc1cccs1 | -6% | -29%
CCN(CC#CCC1(O)c2ccccc2-c2ccccc21)C(C)C | -11% | i
CCOc1ccc(N2CC(c3nc4ccccc4n3CCOc3ccccc3)CC2=O)cc1 (configuration not stated) | -6% | -1%
COC(=O)Nc1nc2ccc(C(=O)c3ccccc3)cc2[nH]1 | -26% | -33%
COc1cccc(NC(=O)Cn2nc(Cc3cccnc3)c3ccccc3c2=O)c1 | -1% | -11%
C/C(=N\N1CCN(Cc2ccc(C)cc2)CC1)c1ccco1 | -15% | -23%
CN(C)c1ccc(N=Nc2ccccc2C(=O)OCC(=O)Nc2ccccc2C(F)(F)F)cc1 | -16% | -27%
CC1CCCCN1C(=O)COC(=O)c1ccc2ccccc2n1 (configuration not stated) | -11% | -18%
S=C(NCc1cccs1)NCC1CCCO1 (configuration not stated) | -7% | i
O=C(NCc1ccc(Cl)cc1)c1cc(-c2ccc(F)cc2)on1 | -1% | -5%
CCC(=O)Nc1nnc(S(=O)(=O)N2CCCc3ccccc32)s1 | -18% | 0%
Cc1nnc(NC(=O)c2nn(CC(C)C)c(=O)c3ccccc23)s1 | -5% | -13%
O=C(NC(=S)NNC(=O)c1cnccn1)c1ccc(Cl)cc1 | -14%[7.34 µM] | -20%[7.34 µM]
Cc1csc(NC(=O)c2c(-c3ccccc3)noc2C)n1 | 3% | 10%
O=C(CCN1C(=O)/C(=C\c2ccccc2Cl)SC1=S)Nc1cccnc1 | -12% | -15%
CC(CCCC(C)(C)O)NCCO (configuration not stated) | 0% | i
CC(C)NC(=O)Nc1ccc2c(c1)C(=O)N([C@@H](C)CO)C[C@@H](C)[C@@H](CN(C)S(=O)(=O)c1ccc(F)cc1)O2 | -11% | -7%
CC(C)c1nc(CNC(=O)CC2C(=O)NCCN2Cc2ccccc2)cs1 (configuration not stated) | -12% | -15%
COC(=O)C1CCN(c2ccc(C(N)=O)cc2[N+](=O)[O-])CC1 | -6% | -18%
O=C(CN1C(=O)CC(c2ccco2)Sc2ccccc21)Nc1ccc(Br)cc1 (configuration not stated) | -4% | 0%
O=C(Cc1ccccc1F)Nc1nc(-c2ccc(F)cc2)cs1 | -8% | u
CCS(=O)(=O)N1CCC(NC(=O)c2cc(OC)cc(OC)c2)CC1 | -16% | i
CNS(=O)(=O)c1ccc(N2CCCC2=O)c([N+](=O)[O-])c1 | -17% | -12%
CC(=O)c1cccc(N(CC(=O)NC2CCCCC2)C(=O)Cn2nnc(-c3ccccc3)n2)c1 | -15% | i
O=C(CCN1C(=O)C2C3C=CC(C4CC34)C2C1=O)Oc1ccc(Br)cc1 (configuration not stated) | -24% | i
Cc1ccc(OCC(=O)Sc2ccc(C)cc2)cc1 | -24% | x
O=C(CSc1ccccc1)NCc1ccc2c(c1)CCN2C(=O)c1ccccc1 | -12% | -11%
CC(C)C[C@@H](CN1CCC[C@@H]1CN1C(=S)NC[C@@H]1Cc1ccc(O)cc1)N1C[C@H](Cc2ccc(O)cc2)N(CC2CCCCCC2)C1=S | u | u
CCCNC(=O)c1cc(C2CCCCN2C(=O)c2ccc3ccccc3c2)on1 (configuration not stated) | 5% | 7%
O=C(Nc1ccc(C(O)(C(F)(F)F)C(F)(F)F)cc1)c1ccc(Cl)c([N+](=O)[O-])c1 | u | u
Cc1nn(-c2ccccc2)c(C)c1NC(=O)COC(=O)c1ccc(S(=O)(=O)C(F)F)cc1 | -18% | -16%
CCOc1ccc(NC(=O)C2CSC(c3ccncc3)=N2)cc1 (configuration not stated) | 2% | -8%
CC[C@@H](CC1CCCCC1)C(=O)N(Cc1ccccc1)c1ccccc1 | -11% | u
CC(C)c1onc(C(=O)NCc2ccccn2)c1[N+](=O)[O-] | 4% | -22%
COc1cc(C(=O)N(CCc2ccccc2)C2CC3CCC(C2)N3C)cc(OC)c1OC (configuration not stated) | -18% | x

A draw from above in order of SMILES length, falling.
SMILES | Vaccinia Venus | Vaccinia mCherry
CC(=O)c1cccc(N(CC(=O)NC2CCCCC2)C(=O)Cn2nnc(-c3ccccc3)n2)c1 | -15% | i
O=C(CCN1C(=O)C2C3C=CC(C4CC34)C2C1=O)Oc1ccc(Br)cc1 (configuration not stated) | -24% | i
O=C(CN1C(=O)CC(c2ccco2)Sc2ccccc21)Nc1ccc(Br)cc1 (configuration not stated) | -4% | 0%
CC(C)c1nc(CNC(=O)CC2C(=O)NCCN2Cc2ccccc2)cs1 (configuration not stated) | -12% | -15%
CCOc1ccc(NC(=O)C2CSC(c3ccncc3)=N2)cc1 (configuration not stated) | 2% | -8%
CC(CCCC(C)(C)O)NCCO (configuration not stated) | 0% | i

(list continues)
SMILES | Vaccinia Venus | Vaccinia mCherry
CCc1ccc(NCc2cc3ccc(OC)cc3n(CC(=O)Nc3ccccc3OC)c2=O)cc1 | 1% | -8%
CCOc1ccc(Cc2c(Cl)nc(SC)nc2N(C)C)cc1 | -25% | -18%
CCN(CC)c1ccc2c(c1)OC(N)=C(C#N)C2c1cccnc1 (configuration not stated) | -13% | u
Nc1ccc(OCc2ccco2)cc1 | 11% | u
CCCn1c(SCC(=O)/C(C#N)=C(\C)N)n[nH]c1=O | -7% | -7%
COc1ccccc1N1C(=O)NC(=O)/C(=C/c2ccc3c4c(cccc24)CC3)C1=O | 8% | -2%
CCCN(CCC)S(=O)(=O)c1ccc(N2CCCC2=O)c([N+](=O)[O-])c1 | -15% | i
O=S(=O)(c1ccccc1)c1nnn2c1nc(NCc1cccs1)c1sccc12 | u | u
O=C(O)c1ccc(NC(CSCc2cccc(F)c2)C(=O)O)c([N+](=O)[O-])c1 (configuration not stated) | 8% | -5%
CCN(CC)CCNC(=S)Nc1ccc2nc3n(c(=O)c2c1)CCCCC3 | -19% | -15%
O=C(NCCSC1CCCCC1)c1ccccc1 | -18% | i
COc1ccccc1OCC(=O)N1CCNC1=O | 3% | -10%
Cc1cc(CNC(=O)C2(C(F)(F)F)CC(CCCO)CCCO2)nn1C (configuration not stated) | -5% | i
O=C(NC(=O)N1CCCCCC1)c1ccccc1 | -17% | i
O=C(NCc1cccs1)c1ccc2sc(COCCO)nc2c1 | -7% | 20%
CCOc1cc(/C=C(/C#N)c2ccc(F)cc2)ccc1OCc1ccc(C(=O)O)o1 | -27% | x
CCOC(=O)C1CCCN(C(=O)c2cc(-c3ccccc3)on2)C1 (configuration not stated) | -5% | i
c1ccc(-c2onc(-c3ccco3)c2-c2ccc3[nH]ccc3c2)cc1 | -22%&-24% | -1%&-28%
CN(CCC#N)C(=O)COC(=O)c1ccccc1C(=O)c1ccc(Cl)c([N+](=O)[O-])c1 | -19% | -24%
O=C(CS(=O)(=O)c1ccccc1)NCc1ccco1 | -7% | -1%

Some of the entries above in a different format:
molecule,Vaccinia Venus,Vaccinia mCherry
CN(CCC#N)C(=O)COC(=O)c1ccccc1C(=O)c1ccc(Cl)c([N+](=O)[O-])c1,-19%,-24%
O=C(NC(=O)N1CCCCCC1)c1ccccc1,-17%,i
Nc1ccc(OCc2ccco2)cc1,11%,u
O=C(O)c1ccc(NC(CSCc2cccc(F)c2)C(=O)O)c([N+](=O)[O-])c1 (configuration not stated),8%,-5%
CCN(CC)c1ccc2c(c1)OC(N)=C(C#N)C2c1cccnc1 (configuration not stated),-13%,u

Further structures.
SMILES | Vaccinia Venus | Vaccinia mCherry
CC(=O)Nc1ccccc1C(=O)C(=O)Nc1ccc(C(=O)NCC2CCCO2)cc1 (configuration not stated) | -11% | -6%
CCOC(=O)N1CCC(NC(=O)c2ccc(CS(=O)(=O)c3ccc(OC)cc3)o2)CC1 | -7% | -8%
COCC1CCN(Cc2cn[nH]c2-c2cc3ccccc3o2)C1 (configuration not stated) | -12% | -18%
COc1ccc(N2CCN(C(=O)CN(c3cccc(OC)c3)S(=O)(=O)c3ccccc3)CC2)cc1 | -15% | -9%
COc1cc(CN2C(=O)C(C)ON=C2c2ncccc2C)cc(OC)c1 (configuration not stated) | 2% | 19%
O=C(N/N=C/c1cccc(O)c1)c1ccc(COc2cccc3cccnc23)cc1 | -11% | i
C[C@@H]1CN([C@H](C)CO)S(=O)(=O)c2ccc(C#Cc3ccccc3)cc2O[C@H]1CN(C)C(=O)Nc1ccc2c(c1)OCO2 | -27% | -10%
Cc1ccc(NC(=O)CN(C)C(=O)COc2ccc(Br)cc2)cc1 | -25% | u
CCC(=O)Nc1cc(C(=O)O)ccc1Sc1ccccc1 | 2% | -16%
CNC[C@H]1Oc2ccc(NC(=O)Nc3ccccc3)cc2CC(=O)N([C@H](C)CO)C[C@H]1C | -13% | i
CC1=C(C(=O)OC(C)C)C(c2cccc([N+](=O)[O-])c2)n2c(cc(=O)[nH]c2=S)N1 (configuration not stated) | -6% | -9%
CCOc1ccc(NC(=O)CC2C(=O)N(c3cccc(C)c3)C(=O)N2Cc2ccco2)cc1 (configuration not stated) | -1% | 1%
CCc1cccc(CC)c1NC(=O)CN1CCN(S(=O)(=O)c2ccccc2)CC1 | -13% | -3%
COc1ccc(Nc2nn(-c3ccc(OC(F)(F)F)cc3)nc2C(C)=O)cc1 | -6% | -5%
COc1ccc(S(=O)(=O)N[C@@H](CC(C)C)C(=O)O)cc1 | -2% | -14%
O=C(COC(=O)c1cnccn1)c1ccccc1 | -13% | i
CCCCCCCCC(=O)O | 11% | -7%
O=C(Nc1nc(-c2ccc3c(c2)OCO3)cs1)C1COc2ccccc2O1 (configuration not stated) | -12% | i
CN1CCN(C(=O)c2ccc(S(=O)(=O)N(C)c3ccccc3)cc2)CC1 | 0% | -2%
CC(=O)Nc1ccc(S(=O)(=O)NNC(=O)COc2ccc(C(C)(C)C)cc2)cc1 | -15% | x
COc1ccc2[nH]c(C)c(C(=O)CN(C)CC(OC)OC)c2c1 | -10% | -13%
CC(CC(=O)O)C(=O)c1ccc(Cl)c([N+](=O)[O-])c1 (configuration not stated) | 4% | 9%
O=C(Cn1c(=O)oc2ccccc21)N1CCN(c2ccccc2)CC1 | 15% | 11%
Cc1cc(C)c(-c2csc(NC(=O)CCCc3nc4ccccc4c(=O)[nH]3)n2)c(C)c1 | -17% | -23%
COc1ccccc1C(=O)NCC(C)(C)CN=C1NS(=O)(=O)c2ccccc21 | -2% | 5%
COc1ccc(N2C(=O)C(=O)N(c3ccc(OC)cc3)P2(=O)N(CCCl)CCCl)cc1 | 2% | i
CSc1nc(=O)[nH]c2nc[nH]c12 | -9% | -15%
O=C(COC(=O)c1ccccc1)NCc1ccco1 | -8% | -20%
CCN(Cc1ccccc1)Cc1c(O)ccc2c(=O)c(-c3ccccc3)c(C(F)(F)F)oc12 | -9%[7.34 µM] | -2%[7.34 µM]
CCCn1c(SCc2ccc(C(=O)OC)o2)nc2ccccc2c1=O | -15% | -6%
COc1cc(C(=O)NCc2ccc3c(c2)cc(C)n3C)cc(OC)c1OC | 32%[activator] | i
Cc1ccc(NC(=O)CSc2nc(-c3ccc(C(C)(C)C)cc3)nc3cc(=O)[nH]n23)cc1C | -11% | -16%

An unsorted share of the library; any-hit rate near 0.87%.
